ELG1 DNA repair: inhibitors of ELG1-dependent DNA repair in HEK293T cells. HEK293T ELG1-luciferase reporter, luminescence, 16 h; DNA damage induced by 5-fluorouridine. Potency, µM (top dose mostly 46.1 µM), for inactives: at the highest dose activity change, negative = inhibition, most hits filed as inhibitors. 330,000 tested, 2.3% active; also: potency is read from the fitted curve at half-maximal effect; % is scaled to controls: 0 for no effect and ±100 for the full control effect; nearly all actives have a fitted effect of over 55% in size
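Overnight (16 hr) co-exposure of 2,000 cells/well to 5-fluorouridine and compound at 37 °C preceded detection. Luciferase was quantified via ONE-Glo luminescence; loss of signal denotes inhibition.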
NPC1 promoter act: activates the NPC1 promoter. Huh7 NPC1 promoter luciferase reporter, 24 h. Potency, µM (series often up to 9.22 µM), for inactives: at the highest dose activation, actives largely listed as activators. 320,000 tested, 2.4% active. AID 485313;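 also: potency is read from the fitted curve at half-maximal effect; % of control where 0% means no effect; nearly all actives have a fitted effect of over 60% in size; reporter is driven by a mutant NPC1 promoter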
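Luciferase expression driven by the NPC1 promoter was measured in stably transfected Huh7 cells after a 24 h compound incubation, using a luciferase reagent and a luminescence read.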
Rab9 promoter act: activators of Rab9 promoter; Potency, µM (top dose mostly 9.22 µM), for the others: at the top dose activation, negative = inhibition, most hits filed as activators; AID 485297; 320,000 tested, 2.8% active; Huh7 Rab9 promoter-luciferase reporter, luminescence, 24 h; also: potency is read from the fitted curve at half-maximal effect; % of control where 0% means no effect; nearly all actives have a fitted effect of over 60% in size
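Huh7 cells stably carrying Rab9 promoter–luciferase reporter, plated 1500 cells/well, compound added after 2 h and incubated 24 h at 37 °C; luciferase luminescence then read after 10 min with detection reagent.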
FLuc modulator: inhibits or activates purified firefly luciferase, miR-21 counter-screen; AID 588342; 360,000 tested, 6.9% active; Potency, µM (highest dose often 57.5 µM), inactives show top-dose activity change, negative = inhibition, most hits filed as inhibitors; purified FLuc, Km substrates, luminescence inhibition; P08659;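 also: potency is read from the fitted curve at half-maximal effect; plate controls were vehicle for no effect and reference inhibitor for full effect; nearly all actives have a fitted effect of over 55% in size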
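Purified P. pyralis luciferase (10nM final) with 10uM D-luciferin and 10uM ATP (Km levels) in 50mM Tris acetate pH 7.5, 10mM Mg acetate, 0.01% Tween-20, 0.05% BSA; qHTS 6-point titration, ~60 µM downward; luminescence read.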
BRCA1 expr up: increases BRCA1 expression; AID 624202; 380,000 tested, 1.1% active; Potency, µM (highest dose often 46.1 µM), for inactives: at the highest dose activation, actives largely listed as activators; MCF7-BRCA1-FFLuc reporter, luminescence, 48 h; response scale: scaled: vehicle 0%, 10 µM genistein 100%; also: potency is read from the fitted curve at half-maximal effect; nearly all actives have a fitted effect of over 80% in size; some results filed as inactive show a strong effect at the top dose
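Reporter cells (MCF7, BRCA1 promoter-firefly luciferase) received library compounds across a concentration series for 48 h. End-point luminescence was measured and concentration-effect curves derived after normalization.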
p53 reactivator: mutant p53 re-activation in reporter cells | H1299 p53-A138V BP100-luciferase reporter, luminescence, 24 h | Potency, µM (titrated, usually from 92.2 µM), for inactives: top-dose activity change, positive = activation, usual class: activators | 320,000 tested, 0.063% active | AID 504706; also: potency is read from the fitted curve at half-maximal effect; % of control where 0% means no effect; nearly all actives have a fitted effect of over 45% in size
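H1299 (p53-null), stable ts p53-A138V + BP100-Luc; 1000 cells/well, Opti-MEM/10% FBS; cpd 4 pt, 1:5; 24 h, 37 deg C, 5% CO2; detection reagent 10 min RT; luminescence.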
ELG1 genotox: genotoxicity induction in ELG1-luciferase HEK293T cells; Potency, µM (series often up to 46 µM), inactives show top-dose activity change, positive = activation, most hits filed as activators; AID 504466; 330,000 tested, 1.3% active; HEK293T ELG1-luciferase reporter, luminescence, 16 h; also: potency is read from the fitted curve at half-maximal effect; % of control where 0% means no effect; nearly all actives have a fitted effect of over 60% in size
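After overnight (16 hr) compound treatment at 37 °C, ELG1-luciferase HEK293T cells were lysed with ONE-Glo; luminescence quantified 30 min later at room temperature.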
Tb PFK block: blocks T. brucei phosphofructokinase; O15648; AID 485367; Potency, µM (titrated, usually from 57.5 µM), inactives show top-dose activity, negative = inhibition, actives largely listed as inhibitors; 330,000 tested, 0.17% active; T. brucei PFK, ADP-Glo luminescence;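 also: potency is read from the fitted curve at half-maximal effect; 0% = uninhibited 1x PFK enzyme wells and -100% = no-enzyme wells; nearly all actives have a fitted effect of over 60% in size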
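Compounds were pin-transferred as a titration series up to 57 uM into substrate buffer (0.5 mM F6P, 0.1 mM ATP, pH 8.0), then 1.25 nM PFK was added and reactions ran 45 min before ADP-Glo detection.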
TRPV1 agonist: agonists of human vanilloid receptor 1 (TRPV1); TRPV1-expressing cells, Fluo-8 calcium influx, agonist mode; activation, % at 8.33 µM; Q8NER1; AID 540275; 320,000 tested, 0.19% active; in the data active = activation above about 80%; inconclusive = between about 30% and that limit; also: 0% is about no effect
Target sequence (Q8NER1 whole entry, looked up): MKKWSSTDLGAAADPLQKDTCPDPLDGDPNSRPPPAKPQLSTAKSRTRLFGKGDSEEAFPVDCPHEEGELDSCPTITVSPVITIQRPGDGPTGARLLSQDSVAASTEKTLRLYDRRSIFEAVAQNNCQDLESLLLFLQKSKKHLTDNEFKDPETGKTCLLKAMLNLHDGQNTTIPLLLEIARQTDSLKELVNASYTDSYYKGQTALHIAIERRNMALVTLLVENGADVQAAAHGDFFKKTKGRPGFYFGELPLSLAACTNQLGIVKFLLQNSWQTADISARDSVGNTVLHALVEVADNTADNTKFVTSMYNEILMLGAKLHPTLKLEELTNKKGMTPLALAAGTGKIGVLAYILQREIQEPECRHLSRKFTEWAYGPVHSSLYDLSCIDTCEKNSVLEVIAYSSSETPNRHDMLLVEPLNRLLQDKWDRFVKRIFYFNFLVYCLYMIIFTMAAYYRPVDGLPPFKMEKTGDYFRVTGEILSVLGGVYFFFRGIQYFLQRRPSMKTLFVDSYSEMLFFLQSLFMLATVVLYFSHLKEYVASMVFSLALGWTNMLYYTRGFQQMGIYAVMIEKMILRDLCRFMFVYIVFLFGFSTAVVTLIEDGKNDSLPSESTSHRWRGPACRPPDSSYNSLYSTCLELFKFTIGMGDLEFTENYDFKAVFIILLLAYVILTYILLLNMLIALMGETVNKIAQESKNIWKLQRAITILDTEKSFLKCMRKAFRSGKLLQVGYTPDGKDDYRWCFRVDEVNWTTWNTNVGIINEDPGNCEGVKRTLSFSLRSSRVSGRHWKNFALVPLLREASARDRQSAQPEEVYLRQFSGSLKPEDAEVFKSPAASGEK
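Cells expressing TRPV1 were dye-loaded with Fluo-8 and read kinetically: 10 s baseline, 3 min after compound (agonist portion), then 2 min after EC20 capsaicin (allosteric enhancer portion). Calcium-bound dye fluorescence at 480/520 nm.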
* hit, by the source's call; ? = inconclusive; . = not tested or not shown; & = joins results of further samples; [ ] = remark or other dose. Unless noted, calls follow the shape of the dose curve; as a rule, active = well fitted curve in the direction sought with a large enough effect; inconclusive = small, poorly fitted or top-dose-only effect, or another doubt; inactive = no such curve, though single readings can be large; an effect the other way counts as inactive or inconclusive. An excerpt; rates above refer to the full screens.

Results follow in this order: FLuc modulator | ELG1 DNA repair | p53 reactivator | BRCA1 expr up | TRPV1 agonist | Tb PFK block | NPC1 promoter act | Rab9 promoter act | ELG1 genotox
Cc1ccc2c(c1)sc(-c1ccc(N(C)C)cc1)[n+]2C
  12µM* | ? | . | -29% | 1 | 3% | -31%[inhibitor] | -39%[inhibitor] | 2%
CCN(CCNCC(O)COc1ccccc1C(C)C)c1cccc(C)c1 (centres undefined)
  3% | 3% | -11% | -93% | -1 | 0% | 0% | -4% | -11%
C=CCOc1ccc(CN(C)CC(=O)Nc2ccc3c(c2)CCC3)cc1
  -2% | -7% | -5% | -3% | 22 | 1% | -5% | 1% | -4%
CC(C)OCC1CO1 (centres undefined)
  0% | 13% | 6% | 0% | 0 | 7% | -3% | -4% | 2%
COc1ccc2c(c1)c1ccc3c(c1n2C)C(=O)C=CC3=O
  ? | -10% | -12% | -36% | . | -10% | -19% | -43%[inhibitor] | 6%
CC(C)(C)OCC1CO1 (centres undefined)
  0% | 11% | 2% | 0% | 3 | 1% | 6% | -1% | 2%
O=S(=O)(c1ccc2ccccc2c1)N1CCN(C2Cc3ccccc3C2)CC1
  -2% | -7% | 1% | -25% | 1 | 3% | -1% | 1% | -3%
CCOC(=O)N1CCN(C(=O)C2CCN(Cc3ccc(OC)cc3OC)CC2)CC1
  -3% | -9% | 5% | -22% | -6 | -3% | 0% | 3% | -5%
CCN1/C(=C/c2cc[n+](C)cc2)C=Cc2cc(C)ccc21
  -5% | -18% | -1% | -50% | 4 | 0% | -32%[inhibitor] | -48%[inhibitor] | -4%
Cc1ccsc1C(=CCCN1CCC[C@@H](C(=O)O)C1)c1sccc1C
  . | . | . | 12% | . | . | . | . | .
CC1(C)CC(N2CCCC2)=CC(=[N+]2CCCCC2)C1
  -2% | 1.2µM* | 19% | -35% | 0 | 5% | -35%[inhibitor] | -40%[inhibitor] | -5%
Clc1ccc(SCCOCCN2CCCCC2)cc1
  0% | -4% | 4% | -33% | 13 | -10% | -3% | 0% | -8%
C[n+]1cc2c3c(ccc2c2ccc4cc5c(cc4c21)OCO5)OCO3
  . | . | . | -74% | 14&9 | . | -31%[inhibitor][46.1 µM] | -43%[inhibitor][46.1 µM] | .
CC(C)(c1ccccc1)c1ccc(OCC(O)CNC2CCN(Cc3ccccc3)CC2)cc1 (centres undefined)
  0% | -5% | -20% | -36% | -1 | 1% | -6% | -3% | -1%
Cc1ccc2c(c1)S/C(=C/c1ccc[n+](C)c1)N2CCO
  -1% | ? | -1% | -15% | 0 | -5% | -26% | -22% | -11%

3 of the compounds above, with each value named.
SMILES: Clc1ccc(SCCOCCN2CCCCC2)cc1
  FLuc modulator = 0% | ELG1 DNA repair = -4% | p53 reactivator = 4% | BRCA1 expr up = -33% | TRPV1 agonist = 13 | Tb PFK block = -10% | NPC1 promoter act = -3% | Rab9 promoter act = 0% | ELG1 genotox = -8%
SMILES: CC(C)OCC1CO1 (centres undefined)
  FLuc modulator = 0% | ELG1 DNA repair = 13% | p53 reactivator = 6% | BRCA1 expr up = 0% | TRPV1 agonist = 0 | Tb PFK block = 7% | NPC1 promoter act = -3% | Rab9 promoter act = -4% | ELG1 genotox = 2%
SMILES: COc1ccc2c(c1)c1ccc3c(c1n2C)C(=O)C=CC3=O
  FLuc modulator = ? | ELG1 DNA repair = -10% | p53 reactivator = -12% | BRCA1 expr up = -36% | TRPV1 agonist = . | Tb PFK block = -10% | NPC1 promoter act = -19% | Rab9 promoter act = -43%[inhibitor] | ELG1 genotox = 6%

Remaining list, next part
Results follow in this order: FLuc modulator | ELG1 DNA repair | p53 reactivator | BRCA1 expr up | TRPV1 agonist | Tb PFK block | NPC1 promoter act | Rab9 promoter act | ELG1 genotox
C[n+]1cccc2c(Br)ccc([O-])c21
  -1% | 11% | -10% | -6% | -1 | -8% | 16% | -4% | 0%
O=C(CNCCC1=CCCCC1)Nc1ccc(N2CCCCCC2)cc1
  -2% | -2% | -15% | -26% | ? | 0% | -1% | -2% | -3%
Cc1cc(C(C)(C)C)ccc1OCCn1ccnc1
  -2% | -17% | -2% | -38% | 0 | -1% | 2% | 3% | -3%
CCN1/C(=C/C=C/C=C/C=C/c2sc3ccccc3[n+]2CC)Sc2ccccc21
  ? | ? | ? | -64% | -2 | 6% | -37%[inhibitor] | -40%[inhibitor] | -10%
CCC(C)c1ccc(OCCn2ccnc2)cc1 (centres undefined)
  -12% | 1% | 0% | -21% | 3 | -2% | 3% | -1% | 0%
CCOc1cc(N)c(Cl)cc1C(=O)NCC1CN(Cc2ccc(F)cc2)CCO1 (centres undefined)
  . | . | . | 0% | . | . | . | . | .
Cc1ccc(S(N)(=O)=O)cc1
  0% | 11% | 1% | -2% | -7 | 0% | 1% | -3% | 0%
O=C(C1CCCN(Cc2ccccc2F)C1)N1CCc2ccccc2C1 (centres undefined)
  -1% | ? | -4% | -2% | 5 | -2% | 0% | 0% | -2%
Cn1cccc/c1=N\c1cccc[n+]1C
  1% | 18µM* | 5% | -17% | 0 | -5% | -34%[inhibitor] | -39%[inhibitor] | -2%
CCN1/C(=C/c2ccc3cc(C)cc(C)c3[n+]2CC)Sc2cc(C)ccc21
  -4% | ? | 13% | -95% | 13 | ? | -43%[inhibitor] | -39%[inhibitor] | 0%
C=CCN(CC=C)CCOc1ccccc1F
  3% | 10% | -2% | 2% | 2 | -1% | -1% | -2% | 0%
CC1CN(CCCCOc2ccc(Cl)c3ccccc23)CC(C)O1 (centres undefined)
  -10% | ? | -8% | -42% | -9 | 11% | -12% | 1% | 1%
O=C(c1ccc([N+](=O)[O-])cc1)N1CCN(Cc2ccccc2[N+](=O)[O-])CC1
  ? | ? | 8% | -5% | 12 | -10% | -3% | -2% | -10%
Nc1nc2ccccc2[nH]1
  0% | 1% | 1% | -1% | 1 | -1% | -1% | 3% | -2%
CC1CC(C)C[N+](=C2C=C(N3CCCC3)CC(C)(C)C2)C1 (centres undefined)
  -1% | ? | -4% | -56% | -1 | 6% | -41%[inhibitor] | -41%[inhibitor] | -9%

Next part, overlapping the part above by 3 compounds.
Results follow in this order: FLuc modulator | ELG1 DNA repair | p53 reactivator | BRCA1 expr up | TRPV1 agonist | Tb PFK block | NPC1 promoter act | Rab9 promoter act | ELG1 genotox
O=C(c1ccc([N+](=O)[O-])cc1)N1CCN(Cc2ccccc2[N+](=O)[O-])CC1
  ? | ? | 8% | -5% | 12 | -10% | -3% | -2% | -10%
Nc1nc2ccccc2[nH]1
  0% | 1% | 1% | -1% | 1 | -1% | -1% | 3% | -2%
CC1CC(C)C[N+](=C2C=C(N3CCCC3)CC(C)(C)C2)C1 (centres undefined)
  -1% | ? | -4% | -56% | -1 | 6% | -41%[inhibitor] | -41%[inhibitor] | -9%
O=C(O)c1cc(-c2ccccc2)nc2ccccc12
  24µM* | 12% | 8% | 22% | -2&0 | -2%&-9% | 1%&0% | 1%&-2% | 3%
CC(CNC1CCCCC1)OC(=O)c1ccccc1 (centres undefined)
  -1% | 1% | -1% | -2% | 1 | -4% | 2% | -7% | -2%
Cc1ccc(C(OCC(O)CNCc2ccc(F)cc2)c2ccccc2)cc1 (centres undefined)
  3% | -22% | -3% | -99%[inhibitor] | 4 | -9% | -4% | -5% | -1%
CCOC(=O)c1ccc2c(c1)n(CC)c(/C=C/N(C)c1ccccc1)[n+]2CC
  -2% | ? | -7% | -48% | 0 | -6% | -31%[inhibitor] | -40%[inhibitor] | -7%
CCN1/C(=C/c2ccc3cc(C)ccc3[n+]2C)Sc2ccc3sccc3c21
  -13% | 2% | -2% | -24% | 3 | 3% | -36%[inhibitor] | -40%[inhibitor] | -12%
CCC(C(=O)OCCN(CC)CC)c1ccccc1 (centres undefined)
  4% | -5% | 0% | -5% | -1 | 2% | -8% | -1% | 7%
CCOC(=O)c1c(-c2cccs2)csc1NC(=O)CNCCN1CCOCC1
  2% | -10% | 0% | . | 14 | -11% | -1% | 1% | -8%
Cc1ccc2oc(=O)ccc2c1
  . | . | . | 35% | . | . | . | . | .
CCN1/C(=C/c2ccc3cc(C)ccc3[n+]2CC)Sc2ccccc21
  -6% | ? | ? | -67% | 24 | 7% | -39%[inhibitor] | -53%[inhibitor] | -2%
c1ccc2c(c1)[nH]c1ccccc12
  . | . | . | 2% | . | . | . | . | .
CC(C)OC(=O)Nc1ccc2c(c1)N(C(=O)N1CCN(C)CC1)c1ccccc1CC2
  6µM* | ? | ? | 0% | -3 | -3% | ? | ? | ?
CC(=O)NO
  . | . | . | -9% | . | . | . | . | .
CCCC[n+]1c2ccccc2cc2ccccc21
  ? | ? | -6% | -55% | 20 | -29% | -39%[inhibitor] | -28% | 3%
CC(C)Oc1ccc(C(CCN)C2CCCCC2)cc1 (centres undefined)
  5% | ? | -18% | -96%[inhibitor] | 5 | 4% | -28% | -29% | -20%
C=CCNCC#CCOc1ccc(OC)cc1
  0% | -1% | 5% | 13% | 3 | -5% | 8% | 7% | 0%
C=C[C@@](C)(O)CC[C@@H]1[C@@]2(C)CCCC(C)(C)[C@@H]2CC[C@@]1(C)O
  4% | -9% | 0% | 0% | 0 | 8% | -2% | 0% | -1%
CN(Cc1ccccc1)C1=CC(=[N+]2CCCCC2)CC(C)(C)C1
  1% | ? | -3% | -52% | -2 | ? | -42%[inhibitor] | -55%[inhibitor] | -9%
Cc1ccc2nc(-c3ccc(NC(=O)CNC4CC4)cc3)sc2c1
  2.7µM* | ? | -1% | 25% | 0 | 1% | 0.63µM* | 0.28µM* | ?
CC(=O)NC(CC(C)C)C(=O)O (centres undefined)
  . | . | . | 7% | . | . | . | . | .
CCOC(=O)c1c(C)n(-c2ccc(C)cc2)c2ccc(OCC(O)CNCC3CCCO3)cc12 (centres undefined)
  -3% | -22% | -12% | -80%[inhibitor] | 3 | -4% | -7% | -3% | 10%

Assay outcomes from PubChem.
